Assay outcomes from PubChem BioAssay.
LANA-nucl inh – LANA-nucleosome interaction inhibition; FITC-LANA1-23 / chicken nucleosome fluorescence polarization; hits give low values; z-score (no concentration beside the values); 51,000 compounds, 0.3% hits; AID 720717;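 active = both repeat wells score below -2 in polarization z-score versus plate sample wells, excluding overly bright wells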;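 also: 100 nL library stock added to about 30 µL; numbers are from one replicate; some results filed as inactive read as strong as hits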
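Assay system: FITC-LANA peptide and chicken nucleosomes; input: 240 nM purified chicken nucleosomes (480 nM peptide binding sites), final; also added: 50 nM FITC-LANA1-23 probe; medium: TEN-BT buffer, pH 7.5; doses: pin-transferred compound, 100 nL; times: 10–45 min, room temperature; technique: fluorescence polarization; replication: duplicates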
Ab BasE inh – BasE siderophore biosynthesis inhibition. inhibition, % (concentration not given with the values). 84,000 compounds, 0.1% hits. purified BasE, fluorescence polarization binding displacement;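 active = both replicates above 25% with normal brightness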;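 also: 0% = negative plate control signal and 100% = positive plate control signal; stock transfer was 100 nL into about 30 µL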
Starred values were filed as active, the others as inactive; / = not tested or not shown; & = joins results of further samples.

The line under a structure holds: LANA-nucl inh, Ab BasE inh
COc1ccccc1C(=O)COC(=O)C1CC(=O)N(CCc2ccccc2)C1 (stereo not given)
    /, -1.9
COc1ccc(/C=C/C(=O)NCc2ccncc2)cc1
    -0.79, 4.3
CC(NCCCO)c1ccncc1 (stereo not given)
    -0.047, 0.7
O=C1c2ccccc2C2(c3ccccc3)NCCCN12 (stereo not given)
    0.42, -2.3
CN1CN=C(SCc2ccc(C#N)cc2)NC1
    /, 5.0
CCCCC(Sc1nc(N)c(NC(=O)c2ccc(OC)cc2)c(=O)[nH]1)C(=O)O (stereo not given)
    1.3, -3.4
CNC(=S)NC(C)C1CC2CCC1C2 (stereo not given)
    /, 1.0
CC(C)(C)n1nc2c(c1NC(=O)/C=C\c1ccccc1)CS(=O)C2 (stereo not given)
    0.87, 1.7
CCOC(=O)N1CCC(N(CCOC)C(=O)Nc2ccc(CC)cc2)CC1
    0.76, 0.7
COC(=O)c1ccccc1NC(=O)c1noc2c1CCCC2
    -1.1, 1.9
COC(=O)c1cc(OC)c(OC)cc1NC=C(C#N)C#N
    0.68, 1.0
O=C(c1ccc2nccnc2c1)N1CCc2ccccc2C1
    0.56, 0.6
Cc1nn(-c2ccccc2)c(N)c1N=Nc1ccccc1OC(F)F
    /, 1.8
CCOC(=O)CSc1nc(C)c2cc(OC)ccc2n1
    -0.29, 4.4
CCCCn1c(SCC(N)=O)nnc1-c1ccco1
    -1.2, 1.0
Cc1c(-c2ccccc2)sc(N)c1C(=O)N1CCCCC1
    /, -2.4
N#Cc1ccc(Cn2c(CS(=O)(=O)c3ccccc3)nc3ccccc32)cc1
    /, -2.3
CN(C)C(=O)c1cn(CCC#N)nc1-c1cccc2ccccc12
    0.13, 1.2
CCCC1NC(=O)N(CN(C)Cc2ccc(C)cc2)C1=O (stereo not given)
    /, -0.7
CC(C)(C)c1ccccc1OCCCSC#N
    0.21, -0.7

Next part; it opens with the 5 that closed the last part.
The line under a structure holds: LANA-nucl inh, Ab BasE inh
Cc1c(-c2ccccc2)sc(N)c1C(=O)N1CCCCC1
    /, -2.4
N#Cc1ccc(Cn2c(CS(=O)(=O)c3ccccc3)nc3ccccc32)cc1
    /, -2.3
CN(C)C(=O)c1cn(CCC#N)nc1-c1cccc2ccccc12
    0.13, 1.2
CCCC1NC(=O)N(CN(C)Cc2ccc(C)cc2)C1=O (stereo not given)
    /, -0.7
CC(C)(C)c1ccccc1OCCCSC#N
    0.21, -0.7
CCN(CC)C(=O)CSc1nnc(SCc2ccccc2)s1
    /, 1.3
Cc1ccc2nc(COC(=O)CCCN3C(=O)c4ccccc4C3=O)cc(=O)n2c1
    /, -2.9
CCCNC(=O)c1ccc2c(c1)N(Cc1ccccc1)C(=O)CS2=O (stereo not given)
    -0.25, 1.9
O=C(CCCN1C(=O)CSc2ncccc21)NCc1ccc(Cl)cc1
    -0.19, -0.4
O=C(NC1CCSc2ccccc21)C1=CC=CN2CCS(=O)(=O)N=C12 (stereo not given)
    /, -1.5
COc1ccc(-c2nc3ccccc3o2)cc1N
    0.2, -0.8
O=C(CSc1ccccn1)N1CCCCC1
    /, 3.8
Cc1nc(C(F)(F)F)ccc1C(=O)O
    /, -0.2
Cc1c(C(=O)N2CCC(C)CC2)oc2ccc(S(=O)(=O)N3CCCCC3)cc12
    -0.71, 2.3
COC1=NS(=O)(=O)c2ccccc21
    0.66, -0.2
O=C(O)C1Cc2c([nH]c3ccccc23)C(Cc2ccccc2)N1 (stereo not given)
    -0.7, 3.9
COC(=O)/C(=C/c1ccc(F)cc1)NC(C)=O
    0.06, 1.6
Cc1cc(C)n2nc(C(=O)N(C)C(c3ccccc3)c3ccccc3)nc2n1
    /, -2.1
CCn1c(=O)c2sccc2n2c(CCC(=O)NCc3ccccc3)nnc12
    0.18, 1.7
COc1ccc(/C=C/C(=O)Nc2nc(N)n(-c3ccccc3)n2)cc1
    0.16, 0.7
Oc1ccc(-c2nccc(-c3ccccn3)n2)cc1
    -1.1, /
CC(C)N(C(=O)CSc1nnc(Cn2nnc3ccccc32)n1C)C(C)C
    0.53, 0.3
CCCCC(=O)Nc1ccccc1C#N
    1.2, 2.2
COc1ccc(C(=O)N(c2ccccn2)C2CCCCC2)c(OC)c1
    /, 3.2
COCC(C)Nc1oc(-c2ccc(Cl)cc2)nc1C#N (stereo not given)
    /, -1.0

One compound at a time (already shown):
Listed for CCN(CC)C(=O)CSc1nnc(SCc2ccccc2)s1 → LANA-nucl inh = /; Ab BasE inh = 1.3
Listed for CCCCC(=O)Nc1ccccc1C#N → LANA-nucl inh = 1.2; Ab BasE inh = 2.2
Listed for Cc1ccc2nc(COC(=O)CCCN3C(=O)c4ccccc4C3=O)cc(=O)n2c1 → LANA-nucl inh = /; Ab BasE inh = -2.9

Next entries.
The line under a structure holds: LANA-nucl inh, Ab BasE inh
CCOC(=O)Cn1c(=O)oc2cc(S(=O)(=O)N(CCN(C)C)Cc3ccccc3)ccc21
    -0.044, -1.0
O=c1onc(-c2cccc(Cl)c2)n1-c1ccccc1
    /, 1.9
OC1C2CC3CC(C2)CC1C3 (stereo not given)
    /, 2.9
COC(=O)c1c(F)c(F)c(Oc2ccc(Cl)cc2)c(F)c1N1CCCCC1
    /, 0.8
CCOC(=O)c1c(NC=O)sc2c1CCCC2
    0.45, 1.0
Cc1cc(C)nc(N/C(=N/S(=O)(=O)c2ccc(Br)cc2)N2CCC(C)CC2)n1
    /, 0.1
COc1cc2c(cc1OC)N=CCC2
    -0.16, /
COC(=O)c1ccccc1NC(=O)Nc1ccc(N2CCOCC2)c2nonc12
    0.85, -24
CNc1nc(-c2ccccc2)nc(-c2ccccc2)c1C#N
    -0.9, /
COC(=O)c1sc(S(=O)(=O)N2CCN(c3ccccc3OC)CC2)c(C(=O)OC)c1C
    /, 1.4
CCCCCCCCC#CCC#CCC#CCCCC(=O)O
    -0.5, 0.5
Cc1nc2ccccc2c(=O)n1CC(=O)NC(N)=O
    /, 0.2
Cc1ccc2c(c1)sc(=NC(=O)CN1C(=O)c3ccccc3C1=O)n2C
    0.35, -0.2
Cc1ccc(NC(=O)C23CCC(C)(C(=O)C2)C3(C)C)cc1 (stereo not given)
    0.58, 2.3
COc1nnc(-c2ccc(N3CCOCC3)c(NS(=O)(=O)c3ccc(C)cc3)c2)c2ccccc12
    /, -0.3
COc1ccc2c(C)nc(NC3=NC(c4ccccc4)CC(=O)N3)nc2c1 (stereo not given)
    -0.04, -2.6
Cc1cc(=O)n(CC(=O)NC(C)C)c2c1c(C)nn2-c1ccccc1
    0.35, 1.6
O=C(COC(=O)c1ccccc1C(F)(F)F)Nc1c(F)cccc1F
    /, 1.4
Nc1nc2ccc(SC(F)F)cc2s1
    /, 1.0
Cc1cc(C)c(C=C2C(=O)OC(C)(C)OC2=O)[nH]1
    -1, 0.5

Next compounds
canonical_smiles	LANA-nucl inh	Ab BasE inh
CCOc1ccc2[nH]c3nc(=S)[nH]nc3c2c1	0.94	0.8
CCOc1ccc2c(=O)c(Oc3ccccc3Br)coc2c1	/	-1.7
COc1ccc(-c2cc(-c3ccccc3)c(C#N)c(SCS(=O)Cc3ccccc3)n2)cc1 (stereo not given)	/	2.8
Cc1[nH]n(-c2nc(-c3ccccc3)cs2)c(=O)c1N=Nc1ccc(O)cc1	0.77	-0.2
COc1ccc(N=C2C(=O)N3c4c(cc(C)cc42)C(C)=CC3(C)C)cc1	/	-2.2
Cc1cccc(C)c1NC(=O)N1C2CCC1CC(O)(c1cccnc1)C2 (stereo not given)	0.033	-1.3
CCCCC[C@H](O)/C=C/[C@@H]1[C@H](C/C=C\CCCC(=O)O)[C@@H](O)C[C@H]1O	0.15	-0.9
Cc1ccc(NNC(=O)c2cc(C)on2)c(C)c1	0.14	-1.2
Cc1ccc(-c2nnc(SCc3csc(-c4ccccc4)n3)n2N)cc1	/	1.2
CCN1CCN(C(=O)CC2OC(=O)c3ccccc32)CC1 (stereo not given)	/	1.1
S=C(NC1CCCCC1)N1CCC(C2C=NC=N2)CC1 (stereo not given)	-0.68	1.2
Nc1ccc(-c2cc3ccccc3oc2=O)cc1	-0.67	-2.1
COc1cc(C(=O)COC(=O)Cn2cnc3ccccc3c2=O)ccc1OC(F)F	/	0.0
Cc1ccc(C)c(C(=O)CN2C(=O)NC3(CCc4ccccc43)C2=O)c1 (stereo not given)	/	0.7
CCCCn1c(=O)[nH]c(=O)c2c(C(F)(F)F)cc(-c3ccc(OC)cc3)nc21	/	1.2
COC(=O)Cn1c(O)c(N=NC(=O)C2COc3ccccc3O2)c2ccccc21 (stereo not given)	-0.94	1.6
Cc1ccc(C)n1C(CC(=O)O)c1ccsc1 (stereo not given)	-1.2	/
CC(=O)Oc1ccccc1C(=O)N1CCCc2ccccc21	/	4.0
CN(C)N1C(=O)/C(=C/c2cccs2)SC1=Nc1ccccc1	-0.58	4.3
COc1cccc(-c2noc(C3CCCN(S(=O)(=O)c4ccccc4F)C3)n2)c1 (stereo not given)	0.23	0.8

Other compounds follow:
canonical_smiles	LANA-nucl inh	Ab BasE inh
CCOC(=O)c1nn(-c2ccccc2)c(=O)cc1OCC(=O)NCc1ccc2c(c1)OCO2	1	-0.8
Cn1cc(NC(=O)NCC2COc3ccccc3O2)c2ccccc2c1=O (stereo not given)	-0.68	0.3
O=c1[nH]cnc2onc(-c3ccc(F)cc3)c12	-0.26	-0.6
CC(=O)Nc1c(OC(C)=O)c2ccccc2oc1=O	-0.057	1.5
c1cc(CNC2CCCCCC2)cs1	/	0.6
Cn1nc(C(F)(F)F)c(CNc2ccc(Cl)cc2)c1Cl	0.7	/
CCCc1cc(C(=O)Nc2sc3c(c2C#N)CCC(C(C)(C)C)C3)no1 (stereo not given)	-0.16	1.4
Cc1nc(CC(=O)N/N=C/c2ccc(OCC(=O)O)cc2)cs1	/	-0.8
COc1ccccc1OCCCn1cc(/C=C2/C(=N)N3C=CSC3=NC2=O)c2ccccc21	-0.068	2.5
CN(C)CCN1C(=O)C(O)=C(C(=O)c2ccco2)C1c1ccco1 (stereo not given)	-0.49	-0.3
Cc1ccc(-n2c3c(cc(C(=O)NC4CCSC4=O)c2=O)C(=O)CCC3)cc1 (stereo not given)	/	2.1
CC1SC2(CCCCC2)NC1=O (stereo not given)	-0.043	2.2
CSc1ncc(C(=O)N2CCN(Cc3ccccc3)CC2)c(-c2ccccc2)n1	2.1	-4.3
O=c1/c(=C/c2cccnc2)sc2n1CN(c1ccccc1)CN=2	0.081	2.6
CCn1c(SC(=O)NC2CCCCC2)nnc1-c1cccs1	/	-9.3
CN=C(c1ccccc1)N1CCN(c2ccc(OC)cc2)CC1	/	3.3
O=C(NC(CO)CCO)c1ccccc1 (stereo not given)	-0.95	2.6
N#CC(C#N)=Cc1ccc(OCC(O)Cn2c3ccccc3c3ccccc32)cc1 (stereo not given)	-0.41	-2.3
COC(=O)COc1ccc2oc(=O)cc(-c3cc4ccccc4o3)c2c1	0.49	0.7
NC(=O)c1c(NC(=O)CCN2C(=O)S/C(=C\c3cccs3)C2=O)sc2c1CCC2	/	-3.0

The closing 4 records of the part above come first, to join the parts.
canonical_smiles	LANA-nucl inh	Ab BasE inh
O=C(NC(CO)CCO)c1ccccc1 (stereo not given)	-0.95	2.6
N#CC(C#N)=Cc1ccc(OCC(O)Cn2c3ccccc3c3ccccc32)cc1 (stereo not given)	-0.41	-2.3
COC(=O)COc1ccc2oc(=O)cc(-c3cc4ccccc4o3)c2c1	0.49	0.7
NC(=O)c1c(NC(=O)CCN2C(=O)S/C(=C\c3cccs3)C2=O)sc2c1CCC2	/	-3.0
c1cncc(-c2nc3ccc4ccccc4c3c3c2CCCC3)c1	/	1.9
Cc1ccc(CC(=O)OCC(=O)Nc2c(C#N)c(C)c(C)n2Cc2ccco2)cc1C	/	0.0
COc1ccc(N=Cc2ccc[nH]2)cc1	-0.19	-0.3
CC1(C)CC(=O)c2c(C#N)sc(C#N)c2C1	1.1	-0.6
COc1ccc(C2C3C(=O)N(C(C)C)C(=O)C3ON2c2ccc(Cl)cc2)cc1 (stereo not given)	/	0.2
CCCCSc1nnc(C)c(=O)[nH]1	0.12	0.6
COc1cc(/C=C/C(=O)O)ccc1OCc1c(C)noc1C	/	-2.4
CN(Cc1ccccc1)C1CCNCC1	-0.95	-1.4
CCCCCCCCCCCCC[N+](C)(C)Cc1ccccc1	0.33&-0.19	-3.5
O=C1COc2ccc(C(=O)C[n+]3cccc([O-])c3)cc2N1	/	-4.2
CC(C)(C)CC(=O)NCc1cccs1	0.16	-2.6
COc1ccc2c(c1)c(CC(=O)N1CCOCC1)c(C)n2C(=O)c1ccc(Cl)cc1	-0.11	-2.2
CC1(C)CC2(C=CC(=O)CC2)CCO1 (stereo not given)	-1.4	0.8
O=c1[nH]cnc2cc(F)ccc12	/	5.1
COCCN(Cc1ccccc1)C(=O)c1ccc2c(c1)NC(=O)CS2	/	3.5
O=C1CCC(C(=O)OC2CCOC2=O)=NN1 (stereo not given)	/	-0.3
O=C(CSc1nc2c(c(=O)n1Cc1ccco1)C1(CCCC1)Cc1ccccc1-2)c1cccs1	3.1	-3.7
CC(OC(=O)c1ccccn1)C(=O)N1CCc2ccccc21 (stereo not given)	/	-1.4
CN(C)c1nc(-c2ccccc2)[n+](C)s1	/	2.5
Cc1nccc(-c2cccc(NC(=O)Nc3ccccc3)c2)n1	/	-1.2
COc1ccc(CC2(C)NC(=O)NC2=O)cc1OC (stereo not given)	/	0.1

Not all compounds are listed; rates above refer to the full screens.
